# KCNQ2 block = KCNQ2 channel blockers in CHO-K1 cells – cell-based, FluxOR thallium flux, B-score, primary screen (AID 2156); B-score at 10 µM; 20 min; hits give low values; only compounds with negative scores are shown here; some inactives read as strong as hits; 1.1% of 310,000 active;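 active = fluorescence ratio B-score at most minus 3 library SDs, with starting brightness B-score within 2 library SDs, cut at about -5.5 in these data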
# Target sequence (O88943 whole entry, looked up): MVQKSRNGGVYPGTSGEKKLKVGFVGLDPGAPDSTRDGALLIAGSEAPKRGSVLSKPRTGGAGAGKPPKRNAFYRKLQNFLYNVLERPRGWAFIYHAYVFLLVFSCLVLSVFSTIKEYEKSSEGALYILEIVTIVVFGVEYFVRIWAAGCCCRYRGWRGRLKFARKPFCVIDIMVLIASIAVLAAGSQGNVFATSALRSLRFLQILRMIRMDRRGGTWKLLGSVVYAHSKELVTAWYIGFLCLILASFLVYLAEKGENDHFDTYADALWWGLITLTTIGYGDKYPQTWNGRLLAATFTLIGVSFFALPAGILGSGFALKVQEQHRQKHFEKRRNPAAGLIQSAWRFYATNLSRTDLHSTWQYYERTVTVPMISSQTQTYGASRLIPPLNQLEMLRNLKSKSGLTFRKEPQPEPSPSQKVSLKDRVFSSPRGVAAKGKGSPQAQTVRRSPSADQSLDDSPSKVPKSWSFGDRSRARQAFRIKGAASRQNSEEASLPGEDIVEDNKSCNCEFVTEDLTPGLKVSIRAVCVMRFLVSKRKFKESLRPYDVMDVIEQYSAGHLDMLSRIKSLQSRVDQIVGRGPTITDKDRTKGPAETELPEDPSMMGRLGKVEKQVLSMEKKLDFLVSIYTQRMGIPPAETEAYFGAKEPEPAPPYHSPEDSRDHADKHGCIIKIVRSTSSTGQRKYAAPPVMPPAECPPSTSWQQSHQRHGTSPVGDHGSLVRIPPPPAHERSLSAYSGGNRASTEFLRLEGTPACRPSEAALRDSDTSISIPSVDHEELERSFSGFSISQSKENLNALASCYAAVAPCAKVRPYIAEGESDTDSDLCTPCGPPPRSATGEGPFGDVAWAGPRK
# KCNQ2 block baseline = further read-out of KCNQ2 block, marked with its call; B-score; measured here: initial fluorescence intensity artifact check;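 brightness before thallium and not channel activity; 0 = typical well and far values either way flag optical interference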
# Numbers without * were called inactive; i = inactive. Only part of the results is shown; the hit share may differ from the screen's.
KCNQ2 block	KCNQ2 block baseline	Molecule
i	1.5	COc1cccc(CN(CC2CCCO2)S(=O)(=O)c2ccc(S(=O)(=O)NCC3CCCO3)cc2)c1OC (configuration not stated)
i	2.4	CCCCN(CCCC)CCNC(=O)c1ccc2nc(-c3ccccc3NC(C)=O)c(=O)[nH]c2c1
i	-0.52	O=C(Nc1ccccc1)Nc1nccs1
i	0.4	COCCCNC(=O)CN1C(=O)c2ccccc2C1=O
i	0.91	Nc1c(-c2ccsc2)cnc2ncnn12
i	-0.04	O=C(COc1ccc(S(=O)(=O)N2CCOCC2)cc1)NCc1ccco1
i	-2.3	CCc1c(C)nc2ncnn2c1N1CCCC(C(=O)NCc2ccc3c(c2)OCO3)C1 (configuration not stated)
i	-1.3	Cc1cc(Oc2ccc(=O)n(C)n2)nc(SCCOc2ccccc2)n1
i	-0.06	COc1ccc(NC(=O)COc2cc(O)c3c(c2)OC(C)(C)CC3=O)cc1
i	-0.21	COc1ccc(C(=O)OC(C(=O)c2ccc(C)cc2)c2ccccc2)cc1 (configuration not stated)
i	-0.77	CCCNS(=O)(=O)c1ccc(CCC(=O)NCc2ccc3c(c2)OCO3)cc1
i	0.95	C=CCOC(=O)C1=C(C)NC(SCC(=O)N(CC)CC)=C(C#N)C1c1ccccc1 (configuration not stated)
i	-1.8	Cc1c(Br)c([N+](=O)[O-])nn1CC(=O)Nc1nccs1
i	-2.3	Cc1cc(N)ccc1NC(=O)c1ccccc1
i	2.2	CCN1C(=O)[C@@H]2C(C(=O)c3cnccn3)=NN[C@@H]2C1=O
i	-0.17	CC(=O)Nc1ccccc1OCC(=O)NCC(F)(F)F
i	0.12	O=C1CC(C(=O)Nc2ccc(Cl)cc2)S/C(=N\N=C\c2ccco2)N1 (configuration not stated)
i	-1.3	CC(C)CN(CC(C)C)C(=O)c1cccc(S(=O)(=O)N2CCc3ccccc32)c1
i	-0.39	COc1ccccc1C(=O)N/N=C/c1c[nH]c2ccccc12
i	-0.66	CCOc1cc(/C=N/O)ccc1OCc1ccc(C)cc1
i	-0.45	CCCCNC(=S)NNC(=O)c1cccnc1
i	-2.5	O=C1C(Cl)=C(NCc2cccnc2)C(=O)c2ccccc21
-6.2*	0.06*	CCOC(=O)C1=C(c2ccccc2)NC(N)=NC1c1ccc(OCc2ccc(Cl)cc2)c(OC)c1 (configuration not stated)
i	0.5	COc1cc2cc(C(c3nnnn3C3CCCC3)N3CCc4ccccc43)c(=O)[nH]c2cc1OC (configuration not stated)

# Single records, as listed above. Order of screens: KCNQ2 block, KCNQ2 block baseline
# `CCOC(=O)C1=C(c2ccccc2)NC(N)=NC1c1ccc(OCc2ccc(Cl)cc2)c(OC)c1` (configuration not stated) across the screens: -6.2*, 0.06*
# `O=C1CC(C(=O)Nc2ccc(Cl)cc2)S/C(=N\N=C\c2ccco2)N1` (configuration not stated) across the screens: i, 0.12
# `CCCCNC(=S)NNC(=O)c1cccnc1` across the screens: i, -0.45
# `CC(C)CN(CC(C)C)C(=O)c1cccc(S(=O)(=O)N2CCc3ccccc32)c1` across the screens: i, -1.3
# `COc1cc2cc(C(c3nnnn3C3CCCC3)N3CCc4ccccc43)c(=O)[nH]c2cc1OC` (configuration not stated) across the screens: i, 0.5

# Next section
KCNQ2 block	KCNQ2 block baseline	Molecule
i	-0.3	CCC(C)N(CC(=O)NCc1ccc(OC)cc1)C(=O)c1csnn1 (configuration not stated)
i	-0.82	Cc1cc(C(=O)COC(=O)C(C)NC(N)=O)c(C)n1Cc1ccco1 (configuration not stated)
i	1.7	CCC(Sc1nc2c(c(=O)n1CC)SC(C)C2)C(=O)OC (configuration not stated)
i	-1.3	COc1cccc(OCC(=O)N(Cc2nc(-c3ccc(Cl)cc3)no2)C(C)C)c1
i	-3	COc1ccc(CC(=O)Nc2nc(-c3cccc([N+](=O)[O-])c3)cs2)cc1
i	1.5	O=S(=O)(NCc1ccco1)c1cccc(S(=O)(=O)N2CCOCC2)c1
i	1.3	N#Cc1ccc2ccn(CC(=O)NC3CCCCCC3)c2c1
i	0.73	O=C(CCc1nnc2n(Cc3ccc(F)cc3)c(=O)c3ccccc3n12)N1CCN(c2ccccn2)CC1

# The list goes on; it opens with the three that closed the last part.
KCNQ2 block	KCNQ2 block baseline	Molecule
i	1.5	O=S(=O)(NCc1ccco1)c1cccc(S(=O)(=O)N2CCOCC2)c1
i	1.3	N#Cc1ccc2ccn(CC(=O)NC3CCCCCC3)c2c1
i	0.73	O=C(CCc1nnc2n(Cc3ccc(F)cc3)c(=O)c3ccccc3n12)N1CCN(c2ccccn2)CC1
i	0.2	O=C(Cn1cc([N+](=O)[O-])cn1)NCCc1c[nH]c2ccccc12
i	-0.59	O=C(CN1C(=O)C(=O)c2ccccc21)c1ccccc1
i	1.9	Cc1ccc(-c2cc(C(=O)Nc3ccc(S(=O)(=O)Nc4nccs4)cc3)c3ccccc3n2)c(C)c1
i	0.11	CCOc1ccc(C2CC(c3cccc(C)c3)n3ncnc3N2)cc1 (configuration not stated)
i	-0.36	CCN(C(=O)COC(=O)c1nc(Cl)ccc1Cl)C1CCS(=O)(=O)C1 (configuration not stated)
i	-2.3	Cc1ccn2c(C(=O)c3ccc(Cl)cc3)cnc2c1
i	-1.4	N#Cc1c(-c2ccccc2)ccn(Cc2ccccc2Cl)c1=O
i	0.18	Cc1cc2n(n1)C(c1ccccc1Cl)Nc1ccccc1-2 (configuration not stated)
i	0.18	COc1ccc(NC(=O)CSc2nnc(-c3cccc(O)c3)o2)cc1
i	1.4	CC(C)C(=O)Nc1cccc(-c2nc3ncccc3o2)c1
i	-1.5	CC1=Nc2cccc3cccc(c23)N1
i	1.5	COC(=O)c1ccc(=O)n(Cc2ccco2)c1
i	-0.56	CN(CC(=O)Nc1ccccc1Br)C(=O)c1ccccc1-c1nc2ccccc2s1
i	0.28	COc1ccc(N/C(=C/[N+](=O)[O-])SC)cc1
i	-0.52	CC(C)Cn1c2c(c(=O)[nH]c1=O)C(NS(=O)(=O)c1ccc(Cl)cc1)(C(F)(F)F)C(=O)N2 (configuration not stated)
i	1.9	CC(C)CCN1CCN(Cc2cccc(-n3cccn3)c2)CC1CCO (configuration not stated)
i	-0.46	Nc1scc2c(C(=O)N/N=C/c3ccc(Cl)cc3)nn(-c3ccccc3)c(=O)c12
i	0.03	Cc1ccc(C)c(NC(=O)CSc2nnc(-c3ccncc3)o2)c1
i	0.19	N=c1oc2ccccc2cc1C(=O)N/N=C/c1ccccc1
i	-1.4	CCC(C)SCc1nc2ccccc2[nH]1 (configuration not stated)
i	0.02	O=C(NC(=S)N1CCN(Cc2ccccc2)CC1)c1ccco1
i	2.5	CCOC(=O)Nc1cccc(OCC(=O)Nc2ccccc2OC)c1
i	1.5	COc1cc(/C=C/C(=O)Nc2ccc3[nH]c(=O)[nH]c3c2)cc(OC)c1OC
i	0.34	CCCN(C(=O)C1CCCN(c2ncnc3c2nc2n3CCCCC2)C1)c1ccc(F)cc1 (configuration not stated)
i	0.12	COc1ccccc1C(=O)NCCC(=O)NC1CCCC(C)C1C (configuration not stated)
i	0.54	COc1ccc(-n2nc3c(N4CCC(C(=O)N5CCC(C)CC5)CC4)nnc(C)c3c2C)cc1
i	2.7	CN(Cc1c(F)cccc1Cl)C(=O)CNC(=O)c1sc2ccccc2c1Cl
i	-0.74	Cc1c(Cc2ccccc2)c(=O)oc2cc(OCC(N)=O)ccc12
i	-1	NS(=O)(=O)c1ccc(CCNC(=O)CSc2nc3ccccc3c(=O)n2CC2CCCO2)cc1 (configuration not stated)
i	0.1	CC(C)CNC(=S)N(CCN(C)C)Cc1cc2cc3c(cc2[nH]c1=O)OCCO3
i	-0.08	O=C(Nc1ccccc1Cl)c1cc(S(=O)(=O)N2CCCCC2)ccc1N1CCOCC1
i	1.2	CN(CCCS(=O)(=O)[O-])c1ccc(/C=C/c2ccc3ccccc3[n+]2C)cc1

# As entered above:
# COc1ccccc1C(=O)NCCC(=O)NC1CCCC(C)C1C (configuration not stated) in KCNQ2 block baseline reads 0.12
# CC(C)CNC(=S)N(CCN(C)C)Cc1cc2cc3c(cc2[nH]c1=O)OCCO3 in KCNQ2 block baseline reads 0.1

# (next part)
KCNQ2 block	KCNQ2 block baseline	Molecule
i	0.87	Cc1cc(C)n2c(SCC(=O)NC3CCCCC3)nnc2n1
i	-1.2	COc1cc(OC)cc(C(=O)NC(C)CNc2ccc(Cl)cc2[N+](=O)[O-])c1 (configuration not stated)
i	1.1	Cc1ccc(CC2CC(=O)N(c3ccc(Cl)cn3)C2=O)cc1 (configuration not stated)
i	-0.01	Cc1ccccc1Cn1c(C(C)O)nc2ccccc21 (configuration not stated)
i	0.24	COc1ccc(/C=C2\Oc3cc(OC(=O)N4CCOCC4)ccc3C2=O)c(OC)c1
i	0.84	CSCCC(=O)N(C)CC1CCCN(CCc2cccc(C(F)(F)F)c2)C1 (configuration not stated)
i	-0.03	O=C(c1ccccc1)C1Oc2ccccc2C2CC(c3cccs3)=NN12 (configuration not stated)
i	-0.14	COc1cccc(C(=O)N2CCN(Cc3ccc4c(c3)OCO4)CC2)c1OC
i	-1.1	CC(C)CCNC(=O)Cn1c(=O)oc2cc(S(=O)(=O)N3CC(C)CC(C)C3)ccc21 (configuration not stated)
i	-0.42	O=C(NCCCN1CCCC1=O)c1ccc2c(=O)n(Cc3ccco3)c(=S)[nH]c2c1
i	0.11	CCOc1ccc(NC(=O)CCC(=O)O)cc1
i	1.5	CCOC(=O)N1CCN(c2ncnc3scc(-c4ccc(Cl)cc4)c23)CC1
i	-0.72	CCCCNC(=O)NS(=O)(=O)c1ccc(C)cc1
i	-0.03	O=C(N1CCOCC1)N1c2ccccc2Sc2ccccc21
i	-0.95	CC1CC(C)CN(S(=O)(=O)N2CCCC(C(=O)NCc3ccccc3Cl)C2)C1 (configuration not stated)
i	0.63	CCCc1[nH]nc2c1C(CCC)C(C#N)=C(N)O2 (configuration not stated)
i	1.3	Cc1ccc(OCc2ccc([N+](=O)[O-])cc2)c([N+](=O)[O-])n1
i	0.16	O=C(NCC1CCOCC1)c1ccc(OC2CCN(Cc3ccccn3)CC2)cc1
i	1.1	CC1CCC2(CC1)NC(=O)c1ccccc1O2 (configuration not stated)
i	-0.39	CC(C)c1ccc(OCC(=O)Nc2ccc3oc(=O)ccc3c2)cc1
i	-1.7	CC1CCCN(C(=O)CSc2ncccn2)C1 (configuration not stated)
i	-0.35	CCOC(=O)C1CCN(CC(=O)c2c(C)[nH]c3cc(C)ccc23)CC1
i	0.31	Cc1ccc(NC(=O)c2cccc3c2-c2ccccc2C3=O)cc1C
i	0.34	CCn1cc(SCC(=O)NCc2ccc3c(c2)OCO3)c2ccccc21

# Reprinted from the part before: 4 compounds, then new ones.
KCNQ2 block	KCNQ2 block baseline	Molecule
i	-1.7	CC1CCCN(C(=O)CSc2ncccn2)C1 (configuration not stated)
i	-0.35	CCOC(=O)C1CCN(CC(=O)c2c(C)[nH]c3cc(C)ccc23)CC1
i	0.31	Cc1ccc(NC(=O)c2cccc3c2-c2ccccc2C3=O)cc1C
i	0.34	CCn1cc(SCC(=O)NCc2ccc3c(c2)OCO3)c2ccccc21
i	0.55	COc1ccccc1NC(=O)Cc1nnc(SCC(=O)NC2=NCCS2)n1C
i	-0.45	CCOc1ccc(C2NC(=O)c3sc(=S)n(-c4ccccc4)c3N2)cc1 (configuration not stated)
i	0.76	Cc1cc(N/N=C2/CCCc3ccccc32)nc2ccccc12
i	-1.8	CN1CCN(C(=O)c2ccc(N(C)S(=O)(=O)c3cccs3)cc2)CC1
i	5.2	COc1cc(/C=C/C(=O)c2ccc3c(c2)OCO3)cc(Cl)c1O
i	-1.4	Cc1c(CC(=O)NCCCC(=O)O)c(=O)oc2cc3oc4c(c3cc12)CCCC4
i	1.6	CCOc1ccc(NC(=O)c2ccncc2)cc1
i	-0.83	O=C(NC(=S)Nn1cnc2c(cnn2-c2ccccc2)c1=O)c1ccc(Oc2ccccc2)cc1
i	-0.02	Cc1ccn2c(CNCCn3cccn3)c(C(=O)N3CCCCCC3)nc2c1
i	-0.01	Cc1[nH]c(=O)c(C#N)cc1-c1ccncc1
-6.2*	-2.7*	Cn1c(=O)c([N+](=O)[O-])c(Cl)c2ccccc21
i	-0.47	O=C(N/N=C/c1cccs1)c1ccccn1
i	0.12	COc1ccc(/C=C/c2nc3ccccc3n2Cc2ccc(OC)c(OC)c2)cc1
i	0.13	CCOc1cc(/C=C2\C(=O)N(c3cccc(C(F)(F)F)c3)C(=O)c3ccccc32)ccc1O
i	-0.26	O=C(C1CCCC1)N1CCN=C1SCc1cccc([N+](=O)[O-])c1
i	-0.11	CC(C)(C)NC(=O)CSc1nc(O)cc(=O)n1-c1ccccc1F
i	-0.29	O=C(CCNC(=O)c1ccco1)NCCc1ccc(Cl)cc1
i	0.79	O=C(NC1CCCCC1)N(Cc1nc2ccccc2c(=O)[nH]1)C1CCCC1
i	-0.61	CC1(C)CC(=O)C=C(NNC(=O)OC(C)(C)C)C1
i	-1.5	COC(=O)COc1ccc2c(c1C)O/C(=C\c1ccco1)C2=O
i	-0.76	c1cn(-c2ccc(-c3ccnc4ncnn34)cc2)cn1
i	0.74	CCC(CC)c1nnc(NC(=O)/C=C/c2ccco2)s1
i	0.72	Cc1ccc(-n2ncc3c(SCc4ccccn4)ncnc32)c(C)c1
i	-0.65	C=CCCC(=O)Nc1nc(C)c(-c2csc(Nc3cccc(OC)c3)n2)s1
i	0.97	Cc1cc(Cl)c(S(=O)(=O)Nc2ccc3c(c2)OCO3)cc1OCC(=O)NC1CCCCC1
i	0.67	O=C1CCCC2=C1Sc1ccccc1N2
i	-1.3	CCOP(=O)(OCC)C(Nc1ccccc1)c1ccc2c(c1)OCO2 (configuration not stated)
i	-0.16	Cc1ccc(-n2nc(C(=O)O)cc2-c2ccccc2)cc1
i	-0.04	O=C(c1ccc(Cl)nc1)N1CCC(Cc2ccccc2)CC1
i	0.19	CC(C)c1ccc(NC(=S)Nc2ccc3[nH]c(=O)[nH]c3c2)cc1
i	3.3	O=C(N/N=C/c1cc([N+](=O)[O-])ccc1O)c1cccc(NC(=O)c2cccc(Cl)c2)c1

# Source: PubChem
